# nsP2pro inh = blocks chikungunya virus nsP2 protease peptide cleavage | Q8JUX6 | FRET peptide cleavage, nsP2pro, fluorescence 1 h | Potency, µM (top dose mostly 24.9 µM), without a hit: at the highest dose activity change, negative = inhibition, usual class: inhibitors | actives 1.1% (n = 31,000); active means well fitted inhibition curve with a large enough effect; inconclusive means small, poorly fitted or top-dose-only effect; inactive means no such curve, though single readings can be large or run the other way; also: nearly all actives have a fitted effect of over 60% in size; a reference inhibitor and vehicle were the controls
# Target sequence (Q8JUX6 whole entry, looked up): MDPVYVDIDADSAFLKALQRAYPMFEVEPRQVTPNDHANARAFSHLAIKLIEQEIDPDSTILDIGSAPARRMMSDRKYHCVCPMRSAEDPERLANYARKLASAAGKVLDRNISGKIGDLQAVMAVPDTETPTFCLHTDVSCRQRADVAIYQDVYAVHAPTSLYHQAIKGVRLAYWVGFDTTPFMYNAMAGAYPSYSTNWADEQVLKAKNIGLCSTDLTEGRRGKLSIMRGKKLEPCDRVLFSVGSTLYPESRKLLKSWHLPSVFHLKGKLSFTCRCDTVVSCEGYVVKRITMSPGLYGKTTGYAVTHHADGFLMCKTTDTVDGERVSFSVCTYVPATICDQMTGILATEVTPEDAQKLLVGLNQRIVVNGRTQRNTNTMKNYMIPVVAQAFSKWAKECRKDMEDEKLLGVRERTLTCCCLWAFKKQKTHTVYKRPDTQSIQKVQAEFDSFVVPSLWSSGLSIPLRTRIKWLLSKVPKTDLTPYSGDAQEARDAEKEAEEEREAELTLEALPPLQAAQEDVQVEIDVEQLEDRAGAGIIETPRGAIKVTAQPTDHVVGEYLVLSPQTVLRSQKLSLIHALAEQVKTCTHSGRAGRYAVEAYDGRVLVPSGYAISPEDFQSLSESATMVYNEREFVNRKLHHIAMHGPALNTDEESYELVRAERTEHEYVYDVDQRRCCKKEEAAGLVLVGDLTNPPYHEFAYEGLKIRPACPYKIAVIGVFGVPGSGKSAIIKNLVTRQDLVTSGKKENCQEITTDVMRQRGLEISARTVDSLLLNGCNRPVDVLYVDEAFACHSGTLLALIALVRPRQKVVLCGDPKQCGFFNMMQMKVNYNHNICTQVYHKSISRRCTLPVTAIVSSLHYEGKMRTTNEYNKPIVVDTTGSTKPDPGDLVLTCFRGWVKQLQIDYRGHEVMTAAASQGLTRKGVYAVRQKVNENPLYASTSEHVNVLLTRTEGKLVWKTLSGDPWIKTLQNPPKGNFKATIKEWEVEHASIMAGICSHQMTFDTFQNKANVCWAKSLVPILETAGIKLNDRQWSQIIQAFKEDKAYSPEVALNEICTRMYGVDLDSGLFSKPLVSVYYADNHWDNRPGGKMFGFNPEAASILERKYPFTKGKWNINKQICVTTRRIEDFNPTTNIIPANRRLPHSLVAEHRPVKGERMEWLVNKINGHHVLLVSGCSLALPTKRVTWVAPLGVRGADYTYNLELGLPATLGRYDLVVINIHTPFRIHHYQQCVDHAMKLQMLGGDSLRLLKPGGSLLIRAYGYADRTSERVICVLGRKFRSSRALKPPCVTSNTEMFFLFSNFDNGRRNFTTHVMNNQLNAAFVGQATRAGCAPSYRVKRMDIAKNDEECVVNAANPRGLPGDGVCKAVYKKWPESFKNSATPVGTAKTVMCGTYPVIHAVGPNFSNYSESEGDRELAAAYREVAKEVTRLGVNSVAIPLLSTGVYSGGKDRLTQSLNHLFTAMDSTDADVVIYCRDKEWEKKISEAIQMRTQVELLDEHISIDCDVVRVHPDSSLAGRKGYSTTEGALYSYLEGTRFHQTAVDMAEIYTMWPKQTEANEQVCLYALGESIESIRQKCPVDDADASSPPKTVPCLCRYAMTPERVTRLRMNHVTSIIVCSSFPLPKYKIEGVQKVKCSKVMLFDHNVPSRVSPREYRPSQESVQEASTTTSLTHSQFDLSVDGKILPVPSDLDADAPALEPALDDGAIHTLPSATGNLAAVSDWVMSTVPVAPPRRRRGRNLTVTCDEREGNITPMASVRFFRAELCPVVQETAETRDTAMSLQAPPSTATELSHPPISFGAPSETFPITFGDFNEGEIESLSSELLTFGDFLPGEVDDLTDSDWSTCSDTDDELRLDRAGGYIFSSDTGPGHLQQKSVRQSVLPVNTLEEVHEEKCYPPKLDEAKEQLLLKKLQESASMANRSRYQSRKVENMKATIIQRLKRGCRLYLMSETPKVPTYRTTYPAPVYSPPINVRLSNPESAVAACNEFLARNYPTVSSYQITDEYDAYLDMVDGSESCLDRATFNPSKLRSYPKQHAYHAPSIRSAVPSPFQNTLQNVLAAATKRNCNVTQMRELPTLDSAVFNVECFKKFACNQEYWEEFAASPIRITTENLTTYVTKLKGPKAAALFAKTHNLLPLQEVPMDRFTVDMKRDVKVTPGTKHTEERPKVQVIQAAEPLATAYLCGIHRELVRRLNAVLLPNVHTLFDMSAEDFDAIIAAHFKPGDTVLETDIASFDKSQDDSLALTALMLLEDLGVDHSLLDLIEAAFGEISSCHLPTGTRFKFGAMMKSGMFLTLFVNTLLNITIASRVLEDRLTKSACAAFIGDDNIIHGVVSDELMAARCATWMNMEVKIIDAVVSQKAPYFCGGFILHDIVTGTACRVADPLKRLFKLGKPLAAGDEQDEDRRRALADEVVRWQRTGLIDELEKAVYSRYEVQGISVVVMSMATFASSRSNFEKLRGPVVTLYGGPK
# Numbers without * were called inactive; i = inactive; ? = inconclusive; & = joins results of further samples; [ ] = remark or other dose. % is scaled to controls: 0 for no effect and ±100 for the full control effect; potency is read from the fitted curve at half-maximal effect. Some of the compounds tested, so the mix of outcomes need not match the whole.
SMILES,nsP2pro inh
CN1C[C@H]2CN(Cc3c[nH]c4ccccc34)CCN2C1=O,-8%[39.2 µM]
CC(=O)OC1CC(=O)C2(C)C3CC4=C(OC(C)CC4=O)OC3(C)CCC2C1(C)C (stereo not drawn),94%[activator][10 µM]
C(#Cc1nc2ncccc2nc1OCCN1CCCC1)c1ccccc1,7µM*
CN1C(=O)Cc2cc(S(=O)(=O)N3CCN(c4ccc(Cl)cc4)CC3)ccc21,?
CCOc1ccc(-n2c(=O)c3c4c(sc3n(CC(=O)Nc3cccc(C(F)(F)F)c3)c2=O)CCCCC4)cc1,-22%
C[C@]12CC[C@H]3[C@@H](CC[C@@]45O[C@H]4C(O)=C(C#N)C[C@]35C)[C@H]1CC[C@H]2O,1%
COC(=O)c1ccccc1-c1ccc(/C=c2\sc3nc4cc(Br)cnc4n3c2=O)o1,i
Cc1ccc(NC(=O)CN2C(=O)N/C(=C\c3cccn3-c3ccc([S+](N)(=O)[O-])cc3)C2=O)cc1,i
O=C(CSc1nc2c([nH]c3ccccc32)c(=O)n1-c1ccccc1F)Nc1ccccc1C(F)(F)F,4%
CCN(CC)C(=O)Cn1c(=O)cc(C)c2c(C)nn(-c3ccc(C)cc3)c21,-11%
O=C(NCC(c1ccccc1)c1ccccc1)c1nn(-c2ccccc2Cl)nc1CO,-11%
O=C(Nc1ccc(C(F)(F)F)cc1)N[C@@H]1C[C@H](CO)[C@@H](O)[C@H]1O,-20%[39.2 µM]
COCc1cccc(-c2n[nH]c3c2CC(=O)N(CCc2ccncc2)C3)c1,i
CC(=O)CC(c1ccc([N+](=O)[O-])cc1)c1c(O)c2ccccc2oc1=O (stereo not drawn),-4%
Cc1ccc(C)c(N2CCN(C(=O)Cn3c(C)c4cnn(-c5ccccc5)c(=O)c4c3C)CC2)c1,-13%
O=S(=O)(Nc1cccn2nc(C3CC3)nc12)c1cccnc1,?
Cc1cccc(N2C(=O)N(Cc3cc(=O)n4ccccc4n3)c3ccccc3S2(=O)=O)c1,-18%
Cc1ccc(S(=O)(=O)Cc2nc(-c3ccc(C(=O)NCc4cccnc4)cc3)oc2C)cc1,-24%&24%
Nc1ncn([C@H]2C[C@H](O)[C@@H](CO)O2)c(=O)n1,2%
COc1ccc(C2Nc3ccccc3C(=O)N2Cc2cccnc2)cc1COc1c(C)cc(NC(C)=O)cc1C (stereo not drawn),i
COc1ccc(-c2noc(-c3cccnc3NCc3ccco3)n2)cc1,?
O=C(c1ccnnc1)N1CCC2(CCN(Cc3ccccn3)CC2)C(CO)C1 (stereo not drawn),0%
O=C(c1cccnc1)N1CCC2(CC1)OCCN(Cc1ccccc1)C2=O,-14%[39.2 µM]
COc1ccc(C)cc1NS(=O)(=O)c1cc2c3c(c1)CC(=O)N3CCC2,28%
NC(=O)c1ccc(N2CC3CCC(C2)N3CC(F)(F)F)nn1,i

# A portion from the list above, for reference:
SMILES,nsP2pro inh
CN1C[C@H]2CN(Cc3c[nH]c4ccccc34)CCN2C1=O,-8%[39.2 µM]
CC(=O)OC1CC(=O)C2(C)C3CC4=C(OC(C)CC4=O)OC3(C)CCC2C1(C)C (stereo not drawn),94%[activator][10 µM]
C(#Cc1nc2ncccc2nc1OCCN1CCCC1)c1ccccc1,7µM*
CN1C(=O)Cc2cc(S(=O)(=O)N3CCN(c4ccc(Cl)cc4)CC3)ccc21,?
CCOc1ccc(-n2c(=O)c3c4c(sc3n(CC(=O)Nc3cccc(C(F)(F)F)c3)c2=O)CCCCC4)cc1,-22%
C[C@]12CC[C@H]3[C@@H](CC[C@@]45O[C@H]4C(O)=C(C#N)C[C@]35C)[C@H]1CC[C@H]2O,1%
COC(=O)c1ccccc1-c1ccc(/C=c2\sc3nc4cc(Br)cnc4n3c2=O)o1,i
Cc1ccc(NC(=O)CN2C(=O)N/C(=C\c3cccn3-c3ccc([S+](N)(=O)[O-])cc3)C2=O)cc1,i
O=C(CSc1nc2c([nH]c3ccccc32)c(=O)n1-c1ccccc1F)Nc1ccccc1C(F)(F)F,4%
CCN(CC)C(=O)Cn1c(=O)cc(C)c2c(C)nn(-c3ccc(C)cc3)c21,-11%
O=C(NCC(c1ccccc1)c1ccccc1)c1nn(-c2ccccc2Cl)nc1CO,-11%
O=C(Nc1ccc(C(F)(F)F)cc1)N[C@@H]1C[C@H](CO)[C@@H](O)[C@H]1O,-20%[39.2 µM]
COCc1cccc(-c2n[nH]c3c2CC(=O)N(CCc2ccncc2)C3)c1,i
CC(=O)CC(c1ccc([N+](=O)[O-])cc1)c1c(O)c2ccccc2oc1=O (stereo not drawn),-4%

# (more compounds)
SMILES,nsP2pro inh
CC1C2=CC(=O)OC2(O)CC2C1CCC1C(C)(C)CCC(O)C21C (stereo not drawn),-1%
CC(C)N[C@@H]1CO[C@H](CNC(=O)c2ccccc2)[C@H]1O,i
CCC(C)NC(=O)CCc1c(C)nc2cc(-c3ccc(OC)cc3OC)nn2c1C (stereo not drawn),-11%
COC(=O)[C@H]1CN(C(=O)NC(C)C)CCN1S(C)(=O)=O,-7%[39.2 µM]
CCN(CC)S(=O)(=O)c1nnc(NC(=O)c2ccccc2Cl)s1,-9%
CC1(C(=O)O)CCCC2(C)C3CCC4CC3(CCC12)CC4(O)CO (stereo not drawn),24%
Fc1ccccc1OCc1nc(C2CCCNC2)no1 (stereo not drawn),-4%
O=C(c1ccncc1)N1C2CCC1CN(Cc1cccnc1)C2,-7%
CCc1c(C)c2ccc(O)c(CN3CCN(c4ccccc4)CC3)c2oc1=O,-7%
O=C(CCc1cc2n(n1)CCCNC2)Nc1ccc2c(c1)OCCO2,-8%
COc1ccc(C2=CC(=O)OC2Cc2ccc(O)cc2)c(O)c1 (stereo not drawn),4%
CCCCCCc1cc2cc(-c3nnc(-c4ccc(C)cc4)o3)c(=O)oc2cc1O,?
COc1cc([C@@H]2Oc3c(OC)cc(CCCO)cc3[C@@H]2CO[C@@H]2O[C@H](CO)[C@@H](O)[C@H](O)[C@H]2O)ccc1O,47%[activator][10 µM]
O=C(O)CN(CCN(CC(=O)O)CC(=O)O)CCN(CC(=O)O)CC(=O)O,115%[activator][10 µM]
O=C(COc1ccc(F)cc1)Nc1nnc(S(=O)(=O)N2CCc3ccccc32)s1,-3%
O=C(O)[C@H]1O[C@@H](Oc2cc3oc(-c4ccccc4)cc(=O)c3c(O)c2O)[C@H](O)[C@@H](O)[C@@H]1O,-9%
O=C(Nc1ccc2c(N3CCCCC3)ncnc2c1)c1ccccc1C(F)(F)F,i
Cc1ccc(NC(=O)CN2C(=O)COc3ccc(S(=O)(=O)N4CCCCC4)cc32)cc1N(C)C,-13%
CC(=O)NCCC(=O)N1CCC2(CC1)CN(C(=O)Cc1ccc(O)cc1)CCO2,3%
C[C@@H]1CN(C2(C(=O)NCc3n[nH]c4c3CCC4)Cc3ccccc3C2)C[C@H](C)O1,?
Cc1ccc(-c2nnc(SCC(=O)NCc3ccccc3)nc2-c2ccc(C)cc2)cc1,-18%
CC(=O)n1nc(-c2cccnc2)nc1NCc1ccc(F)cc1,?
Cc1ccn2c(C(=O)N3CCCC(c4[nH]ncc4-c4ccccc4)C3)nnc2n1 (stereo not drawn),i
CCCCNc1nc(C)nc2c1nc(-c1ccccc1)n2CCN1CCCCC1,2%
Cc1ccnc(CC(=S)N2CCN(c3cccc(C(F)(F)F)c3)CC2)c1,-9%

# (listing goes on)
SMILES,nsP2pro inh
O=C(O)CCC/C=C\C[C@@H]1[C@@H](/C=C/[C@@H](O)COc2cccc(Cl)c2)[C@H](O)C[C@@H]1O,19%
Oc1c(C(c2ccc(Cl)cc2Cl)N2CCOCC2)sc2nc(-c3ccco3)nn12 (stereo not drawn),-20%
CCN1CCC(N(Cc2ccc3c(c2)OCO3)C(=O)Nc2ccccc2OC)CC1,-7%
CN(Cc1cccn1C)C(=O)Nc1ccc(Cl)cc1,?
CCOc1ccc(C(=O)Nc2ccc3oc(-c4cccc5ccccc45)nc3c2)cc1,-27%
CCOC(=O)[C@H](CCc1ccccc1)N[C@@H](C)C(=O)N1Cc2cc(OC)c(OC)cc2C[C@H]1C(=O)O,?
C[C@@H]1O[C@@H](O[C@H]2[C@H](O[C@H]3[C@H](O[C@H]4CC[C@@]5(C)C(CC[C@]6(C)C5CC=C5[C@@H]7CC(C)(C)C[C@@H](O)[C@]7(C)CC[C@]56C)[C@@]4(C)CO)O[C@H](C(=O)O)[C@@H](O)[C@@H]3O)OC[C@H](O)[C@@H]2O)[C@H](O)[C@H](O)[C@H]1O (stereo partly drawn),-1%[5.1 µM]
O=C(OOC(=O)c1ccccc1)c1ccccc1,0%
CCOC(=O)c1cc(-c2ccccc2)n(-c2cccc(C(=O)NC(C)CC)c2)c1C (stereo not drawn),-19%
C/C1=C\CCC2=CC(OC2=O)C(C)(C)/C=C/C1=O (stereo not drawn),?
COCCOC(=O)N1CCN(S(=O)(=O)c2cc(F)c(Oc3ccc(Cl)cc3)c(F)c2)C(C(=O)NO)C1 (stereo not drawn),-10%
CCOC(=O)c1ccccc1NC1(c2ccc(OC)cc2)C(=O)c2ccccc2C1=O,-3%
CCOC(=O)/C=C/c1cc(F)c(S(=O)(=O)N2CCN(S(=O)(=O)c3ccc4c(c3)OCCO4)CC2)cc1F,-4%
CC(C)CCN1C[C@@H]2C[C@H]1C(=O)N(Cc1cccnc1)c1ccccc1O2,-5%[39.2 µM]
O=C(O)C[C@H]1CCC(=O)[C@@H]1C/C=C\CCOC1OC(CO)C(O)C(O)C1O (stereo partly drawn),18%
Cc1c(-c2ccccc2F)[nH]c2ccc(CNC(=O)C3C=CCN3)cc12 (stereo not drawn),5%
Cc1ccc(N(C)S(=O)(=O)c2ccc3c(c2)CCC(=O)N3)cc1C,0%
CNc1oc(-c2cccc(Cl)c2Cl)nc1C#N,1%
Cc1ccc(C[C@H](C(=O)O)N2C(=O)c3ccc(C(=O)O)cc3C2=O)cc1,-22%
Fc1cc(Nc2nc(-c3ccncc3)nc3ccccc23)ccc1-c1ccncc1,-4%
CC1CC(O)C2(C)C(C(=O)O)=CCCC2C1(C)CCc1ccoc1 (stereo not drawn),23%
Cc1noc(/C=C/c2cccs2)c1S(=O)(=O)N1CCC(C(=O)NCc2ccccc2Cl)CC1,-16%
CCOC(=O)CC(NC(=O)CCc1c(C)nc2c(c1C)c(=O)n(C)c(=O)n2C)c1ccc(OCC)c(OC)c1 (stereo not drawn),-7%
O=C(c1n[nH]c2c1CCCC2)N1CCCC2(C1)Nc1cccnc1NC2=NC1CCCC1 (stereo not drawn),-7%
C/C1=C/CCC2=CC(OC2=O)C(C)(C)/C=C/C1=O (stereo not drawn),-12%

# Remaining list, next part
SMILES,nsP2pro inh
CCOC(=O)[C@H]1O[C@H]1C(=O)N[C@@H](CC(C)C)C(=O)NCCC(C)C,7.1µM*
Cc1cc(C)cc(-n2c(SCC(=O)NC3CCCCC3)nc3c([nH]c4ccccc43)c2=O)c1,?
CCCN(CCC)C(=O)CSc1nc2sc3c(c2c(=O)n1-c1ccccc1)CCN(C(C)=O)C3,-20%
CC1(C)C[C@@H]2[C@H](C1)[C@@]1(C)C[C@]13C(O)OC[C@]3(O)[C@H]2O (stereo partly drawn),4%
Cc1ccc(S(=O)(=O)Nc2cnccc2C(=O)Nc2ccc(-c3nn[nH]n3)cc2)cc1,i
C=C1C(=O)OC2CC(C)C(CCC(C)=O)=CCC12 (stereo not drawn),2%
COC1CCCN(C(=O)c2cnc(Cc3c(Cl)cccc3Cl)[nH]c2=O)C1 (stereo not drawn),0%
Cc1[nH]c(C)c(Cl)c(=O)c1Cl,-3%[10 µM]
Cc1ncoc1C(=O)N1CCC2(CC1)CC(N(Cc1ccccc1)C1CC1)CCO2 (stereo not drawn),-10%
CC(C)CS(=O)(=O)N[C@H](C)c1onc(-c2ccc(F)cc2)c1C(=O)O,-2%[39.2 µM]
Fc1ccc(N2CCN(c3ncnc4[nH]ncc34)CC2)cc1,-15%
CC(C)(C)c1nc(C(=O)NCc2cccnc2)n2ccncc12,?
CNC(=O)c1c(NC(=O)c2ccc(S(=O)(=O)N3CCCCC3C)cc2)sc2c1CCC2 (stereo not drawn),19%
Cc1ccc(Cl)cc1-n1c(=O)c2sc3ccccc3c2n(CC(=O)NC2CCCCC2)c1=O,-20%
Nc1nc(CCC(=O)N[C@@H]2COCC[C@H]2Oc2ccc(CO)cc2)cs1,-15%
CCOC(=O)c1c(C)oc2nc(C)nc(N(C)Cc3ccccc3)c12,-14%
CC(C)C[C@H](NC(=O)[C@H](Cc1ccccc1)NC(=O)c1cnccn1)B(O)O,-20%&0%&-11%&-9%
CN[C@H](CC(C)C)C(=O)N[C@H]1C(=O)N[C@@H](CC(N)=O)C(=O)N[C@H]2C(=O)N[C@H]3C(=O)N[C@H](C(=O)N[C@H](C(=O)O)c4cc(O)cc(O)c4-c4cc3ccc4O)[C@H](O[C@H]3C[C@](C)(N)[C@@H](O)[C@H](C)O3)c3ccc(c(Cl)c3)Oc3cc2cc(c3O[C@@H]2O[C@H](CO)[C@@H](O)[C@H](O)[C@H]2O[C@H]2C[C@](C)(NCc3ccc(-c4ccc(Cl)cc4)cc3)[C@@H](O)[C@H](C)O2)Oc2ccc(cc2Cl)[C@H]1O,?
O=S(=O)(c1ccccc1C(F)(F)F)N1CC(c2nc(-c3ccncc3)no2)C1,i
O=C(CC1N=C2c3ccccc3N=C(SCc3cccc(Cl)c3)N2C1=O)NCc1ccc2c(c1)OCO2 (stereo not drawn),-20%
COC(=O)[C@@]12C(=O)C(C)C(=O)[C@]1(C)C(C)=C[C@H]1[C@]3(C=O)CC[C@H](OC(C)=O)C(C)(C)[C@H]3CC[C@@]12C (stereo partly drawn),2%[10 µM]
Cc1oc2ncn(C)c(=O)c2c1C(=O)Nc1ccccn1,-13%
CC(=O)c1ccc(Oc2ncnc3c2oc2ccccc23)cc1,-18%
CCN1CCN(CCN2CC3(CCN(C4CCOCC4)CC3)OC2=O)CC1,-2%

# Bioassay records (PubChem BioAssay)
